GIRK2 act = opens human GIRK2 potassium channels | P48051 | HEK293-GIRK2 thallium flux, Thallos fluorescence | calls only for hits at 25 µM | 63,000 compounds, 0.05% hits | AID 1259325;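 active = among the strongest 0.2% of first-round signals and kept after retests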;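 note: first round at about 10 µM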
Target sequence (P48051 whole entry, looked up): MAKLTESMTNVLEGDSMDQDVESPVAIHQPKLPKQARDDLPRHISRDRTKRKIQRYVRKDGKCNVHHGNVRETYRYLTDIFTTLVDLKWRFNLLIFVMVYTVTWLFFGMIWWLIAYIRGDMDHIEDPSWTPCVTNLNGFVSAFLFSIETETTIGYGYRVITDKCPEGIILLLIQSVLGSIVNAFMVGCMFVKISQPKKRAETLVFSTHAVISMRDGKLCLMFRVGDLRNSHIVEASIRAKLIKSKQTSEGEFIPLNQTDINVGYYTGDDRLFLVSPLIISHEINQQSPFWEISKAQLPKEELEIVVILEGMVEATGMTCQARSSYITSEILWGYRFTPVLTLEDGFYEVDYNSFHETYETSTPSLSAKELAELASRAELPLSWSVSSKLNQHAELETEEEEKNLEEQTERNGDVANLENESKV
Calls only; i = inactive.

SMILES	GIRK2 act
COc1ccc(Nc2cc(C(=O)N3CCSCC3)nc3ccccc23)cc1Cl	i
Cc1cc(C)n(-c2nc(CCNC(=O)CSc3ccc(F)cc3)cs2)n1	i
CCn1cc2nc(SCc3cccc(Br)c3)n(CC(C)C)c(=O)c2n1	i
Cc1cc(S(=O)(=O)N2CCC3(CC2)OCCCO3)c(Cl)cc1Cl	i
Cc1ccc2c(c1)c1nc3ccccc3nc1n2CCN1CCN(C(=O)c2ccco2)CC1	i
O=c1ccc(-c2ccc3c(c2)OCO3)nn1Cc1ccccc1	i
O=C(NCc1nc(-c2ccccc2)no1)c1cc(C2CC2)on1	i
CCS(=O)(=O)c1ccc(OC)c(Nc2ncc(-c3ccccc3Cl)o2)c1	i
COc1ccc(-c2nnc3ccc(OCCNC(=O)NC4CCCCC4)nn23)cc1OC	i
Cc1nc(-c2ccccc2F)sc1CNC(=O)NCCCc1ccccc1	i
COc1ccc(CCNC(=O)N2CCN(CC(O)C3CC3)CC2)cc1 (centres undefined)	i
O=C(CN1C(=O)c2ccccc2C1=O)N1CCC(Cn2cccn2)CC1	i
C=CC(C)(C)c1[nH]c2ccccc2c1/C=C1\NC(=O)[C@H](C)NC1=O	i
Cc1ccc(-c2ccc3nn(Cc4cccc(Br)c4)c(=O)n3n2)cc1C	i
O=C(CSc1cc(-n2cccn2)ncn1)Nc1ccccc1Br	i
O=C(CN1CCCC(COCc2ccccc2)C1)NCc1ccc2c(c1)OCO2 (centres undefined)	i
Cc1cc(=Nc2ccccc2)n2ccsc2n1	i
COC(=O)c1ccccc1NS(=O)(=O)c1ccc2[nH]c(=O)cc(C)c2c1	i
Cc1ccc(OCC2Cn3c(nc4c3c(=O)n(C)c(=O)n4C)O2)cc1 (centres undefined)	i
Cc1cc(=O)[nH]c(SCc2nc(-c3ccc(C(F)(F)F)cc3)no2)n1	i

A second format for some results above.
smiles | GIRK2 act
Cc1ccc2c(c1)c1nc3ccccc3nc1n2CCN1CCN(C(=O)c2ccco2)CC1 | i
O=c1ccc(-c2ccc3c(c2)OCO3)nn1Cc1ccccc1 | i
O=C(NCc1nc(-c2ccccc2)no1)c1cc(C2CC2)on1 | i
CCS(=O)(=O)c1ccc(OC)c(Nc2ncc(-c3ccccc3Cl)o2)c1 | i

More structures follow.
SMILES	GIRK2 act
CSc1cccc(NC(=O)CCc2csc(NC(=O)NC3CCCCC3)n2)c1	i
Cc1ccc(CNC(=O)c2ccc(-n3cccn3)nc2)cc1C	i
CSc1ccc(NC(=O)c2sc(-c3ccccc3)nc2C)nn1	i
COC(=O)c1ccsc1NC(=O)CN(C)c1nc2c(C(F)(F)F)cccc2s1	i
O=C(Nc1nc(C(=O)N2CCN(c3cccc(Cl)c3Cl)CC2)co1)C1CC1	i
Cc1cc(NS(=O)(=O)c2ccc(NC(=O)CSc3nc4ccccc4[nH]3)cc2)no1	i
COc1ccc(Cl)cc1NC(=O)CN1CC(c2nc(-c3cccs3)no2)C1	i
O=C(N1CCC(CSC2=NCCS2)CC1)C1(c2ccccc2)CCOCC1	i
CCN1C(SCc2ccc(N3CCCC3=O)cc2)=NS(=O)(=O)c2ccccc21	i
COc1ccc(Cl)cc1NC(=O)CSc1ncnc2nc(N3CCc4ccccc4C3)sc12	i
COc1ccc(-n2nnc3c(N4CCN(C(=O)/C=C\c5ccc([N+](=O)[O-])cc5)CC4)ncnc32)cc1	i
Cc1nnc(NC(=O)CCC2NC(=O)c3ccccc3NC2=O)s1 (centres undefined)	i
COc1ccccc1OCC(=O)N1CCC(CSCc2ccco2)CC1	i
CCN1CCc2ncnc(SCC(=O)Nc3ccc(Cl)cc3C(F)(F)F)c2C1	i
CCOc1ccc(C(=O)N2CCN(c3cc(N4CCOCC4)cnn3)CC2)cc1	i
CCCCNc1nc2c(c(=O)n(C)c(=O)n2C)n1CC(O)COc1ccc(Cl)cc1 (centres undefined)	i
Cc1nc2sccn2c1-c1nnc(SCC(=O)Nc2cc(C(F)(F)F)ccc2Cl)n1C	i
COc1ccc(C(=O)N(C(=O)N2CCCCC2)c2ccc(C)cc2)cc1	i
CCCCC(=O)N1CCN(CC(F)(F)F)CC1	i
COc1ccc(CCn2c(NCCCO)nc3c2c(=O)[nH]c(=O)n3C)cc1	i

Given as a markdown table: five of the compounds above
| mol | GIRK2 act |
| --- | --- |
| O=C(Nc1nc(C(=O)N2CCN(c3cccc(Cl)c3Cl)CC2)co1)C1CC1 | i |
| CSc1ccc(NC(=O)c2sc(-c3ccccc3)nc2C)nn1 | i |
| COc1ccc(-n2nnc3c(N4CCN(C(=O)/C=C\c5ccc([N+](=O)[O-])cc5)CC4)ncnc32)cc1 | i |
| COc1ccc(Cl)cc1NC(=O)CN1CC(c2nc(-c3cccs3)no2)C1 | i |
| CCCCC(=O)N1CCN(CC(F)(F)F)CC1 | i |

Additional records follow.
SMILES	GIRK2 act
COC(=O)C1=C(C)NC(C)=C(C(=O)OC)C1c1ccccc1[N+](=O)[O-]	i
COc1ccc(-n2cc(C(=O)OC3CCOC3=O)c3ccccc3c2=O)cc1 (centres undefined)	i
Cc1cc2ncn(CC3CCN(C(=O)c4cccnc4)CC3)c2cc1C	i
CCCS(=O)(=O)N1CCCc2ccc(NS(=O)(=O)c3ccc(OC)c(C)c3)cc21	i
O=C(Cn1cc(C(=O)c2ccccc2)c(=O)c2cc(Cl)ccc21)Nc1ccccc1	i
O=C(Nc1cccc(C(F)(F)F)c1)N(Cc1ccsc1)C1CC1	i
CCCCc1ccc(S(=O)(=O)c2cnc(SCC(=O)NCc3ccc(C)cc3)[nH]c2=O)cc1	i
COc1cc(/C=C2\Oc3c(ccc(OC(C)=O)c3C)C2=O)cc(OC)c1OC	i
CCOc1ccc(NC(=O)Cn2nnc(-c3ccccc3C)n2)cc1	i
O=C(Nc1ccc(Oc2ccccc2)cc1)c1ccc2nccnc2c1	i
COc1ccccc1CN1CCc2nc(SCC(=O)Nc3cc(F)ccc3F)[nH]c(=O)c2C1	i
CC1=C(CC(=O)O)c2cc(F)ccc2/C1=C\c1ccc(S(C)=O)cc1 (centres undefined)	i
COC(=O)c1ccccc1NC(=O)CCCn1cnc(-c2ccccc2)cc1=O	i
O=C(Cc1cccs1)NCc1cccc(Oc2ccc(F)cc2)c1	i
COc1ccc(C(O)=C2C(=O)C(=O)N(CCCn3ccnc3)C2c2ccccn2)cc1C (centres undefined)	i
NC(=O)c1ccccc1NC(=O)C1CCN(c2ccc(-c3ccco3)nn2)CC1	i
O=C(c1cccs1)N1CCN(c2nnnn2-c2ccccc2)CC1	i
COc1ccc(-c2csc(-c3nnn(-c4cc(Cl)ccc4OC)c3N)n2)cc1	i
CCOc1ccccc1-n1c(C)cn2c3c(=O)n(CCN4CCOCC4)c(=O)n(C)c3nc12	i
CCCCOc1ccc(NC(=O)NCC2CCN(C)CC2)cc1	i

Reformatted: three of the compounds above
GIRK2 act | structure
i | CCCCc1ccc(S(=O)(=O)c2cnc(SCC(=O)NCc3ccc(C)cc3)[nH]c2=O)cc1
i | COc1ccc(-n2cc(C(=O)OC3CCOC3=O)c3ccccc3c2=O)cc1 (centres undefined)
i | O=C(Cn1cc(C(=O)c2ccccc2)c(=O)c2cc(Cl)ccc21)Nc1ccccc1

(list continues)
SMILES	GIRK2 act
COc1ccccc1C(=O)Nc1c2c(nn1CC(=O)NCc1ccccc1)CSC2	i
O=C(CCCc1ccccc1)NCC1(O)CCCC1	i
CCOc1ccccc1NC(=O)CSc1nc2cc(-c3ccccc3)sc2c(=O)n1CC	i
Cc1nc2ccc(NC(=O)c3ccccn3)cc2c(=O)n1-c1ccc(Cl)cc1	i
O=C(NCCNc1cc(-n2cccc2)ncn1)c1c(F)cccc1Cl	i
O=C(c1nnn(-c2ccc(C(F)(F)F)cc2)n1)N1CCN(c2ccccc2F)CC1	i
COc1ccccc1-n1nnc(C(=O)Nc2ccc(F)cc2Cl)c1-c1ccccn1	i
COc1cccc(OCCCCn2cnc3ccccc32)c1	i
CCCS(=O)(=O)N1CCCc2cc(NS(=O)(=O)c3ccc(OC)c(F)c3)ccc21	i
CCCCc1ccc(-n2c(C)cn3c4c(=O)n(CC(=O)OC)c(=O)n(C)c4nc23)cc1	i
Cc1ccccc1-n1ncc2c(=O)n(CC(=O)N3CCC(C)CC3)cnc21	i
O=C(CN1C(=O)C2(SCC(=O)N2c2cccc(Cl)c2)c2ccccc21)NC1CCCC1 (centres undefined)	i
COc1ccc(-n2c(C)cn3c4c(=O)n(Cc5ccccc5C)c(=O)n(C)c4nc23)c(OC)c1	i
COc1cccc(CN2C(=O)N(c3ccc(OC)c(OC)c3)S(=O)(=O)c3ccccc32)c1	i
Cn1c(-c2ccccn2)nn(CCNC(=O)Cn2c(=O)oc3ccccc32)c1=O	i
O=C(c1ccc2c(c1)OCO2)N1CCC(c2cccs2)CC1	i
O=C(CN1C(=O)CCC1=O)N1CCC2(CC1)OCCCO2	i
O=C(Nc1ccccc1)Nc1nc(CCC(=O)N2CCN(Cc3ccccc3)CC2)cs1	i
Cn1nc(-c2ccccc2)cc1C(=O)N1CC(c2nc(-c3ccco3)no2)C1	i
Cc1ccc(C(O)CNC(=O)C(=O)NCC(F)(F)F)o1 (centres undefined)	i
CC(C)(C)OC(=O)N1CCNC(=O)C1CC(=O)OCC1CCCO1 (centres undefined)	i
CCC(C)NC(=O)c1ccc2c(=O)n(C)c3nnc(SCC(=O)Nc4ccc(OC)cc4)n3c2c1 (centres undefined)	i
COc1ccc(CCC(=O)Nc2cnoc2)cc1	i
CCOc1ccc(C(=O)NCC2CCN(Cc3ccccc3)CC2)cc1OCC	i
COc1ccc(Cl)cc1NC(=O)CSc1cc(-c2ccccc2)ncn1	i
Cc1nc2sc(C(c3ccc(F)c(F)c3)N3CCC(Cc4ccccc4)CC3)c(O)n2n1 (centres undefined)	i
CC(C)(C)OC(=O)COc1ccc2c(c1)O/C(=C\c1cc(Cl)cc3c1OCOC3)C2=O	i
O=C(N1C2CCC1COC2)C1(c2ccc(Cl)cc2)CCCC1	i
CS(=O)(=O)CCNCc1coc(-c2ccc3ncnc(Nc4ccc(OCc5ccccc5)cc4)c3c2)c1	i
O=C(Cn1cnc2ccccc21)N1CCCC(c2nnc(-c3ccccc3F)s2)C1 (centres undefined)	i
Cn1cc(-c2cccs2)nc1CCNC(=O)C1(c2ccc(Cl)cc2)CCCC1	i
COc1cccc(C(O)=C2C(=O)C(=O)N(CCN(C)C)C2c2ccccn2)c1 (centres undefined)	i
O=C1CC(NC(=O)c2cc(Cl)ccc2Cl)CN1 (centres undefined)	i
Cc1cn2c3c(=O)[nH]c(=O)n(C)c3nc2n1CCNc1ccc(Br)cc1	i
COc1ccc(S(=O)(=O)NCC(c2cn(C)c3ccccc23)N(C)C)cc1Cl (centres undefined)	i
O=C(NCCc1nc(C2CC2)cc(C(F)(F)F)n1)C1c2ccccc2Oc2ccccc21	i
CCOc1ccc2c(=O)c(Oc3ccc(C(=O)OC)cc3)c(C)oc2c1	i
CC(=O)Nc1cccc(Nc2c(C(=O)N3CCCCC3C)cnc3nc(C)ccc23)c1 (centres undefined)	i
O=c1cc(-c2ccc(O)c(O)c2)oc2cc(O)cc(O)c12	i
COC(=O)N1CCc2ccc(Br)cc2C1C(=O)Nc1ccc(F)c(F)c1F (centres undefined)	i
CC1CCC(C(=O)NC2CCN(C(=O)c3cn[nH]c3-c3ccc(F)cc3)CC2)CC1 (centres undefined)	i
CCNC(=O)NCC1(c2ccccc2)CCOCC1	i
Cc1nn(C2CCS(=O)(=O)C2)c(C)c1N1CCN(C(=O)/C=C/c2ccccc2Cl)CC1 (centres undefined)	i
CC(=O)c1cccc(NC(=O)c2csc(Nc3nc(C)cc(C)n3)n2)c1	i
CCSc1ccccc1C(=O)Nc1ccc(-n2nnc(C(N)=O)n2)cc1	i
C=C1CC2C3(C)C(O)CC(=O)C(C)(C)C3C(OC(C)=O)C(OC(C)=O)C2(C)C2C(=O)OC(C)(C(=O)OC)C(=O)C12C (centres undefined)	i
O=C(CCCn1cnc(-c2ccc(F)cc2)cc1=O)Nc1cnc2ccccc2c1	i
Cc1ccc(S(=O)(=O)N(C)c2ccc(C(=O)NCc3cccnc3)cc2)cc1	i
O=C(Cc1ccccc1Cl)Nc1cc(N2CCOCC2)ncn1	i
O=C(C(=O)N(CCc1ccccc1)Cc1ccccc1)c1c[nH]c2ccccc12	i
COc1ccccc1C(=O)NC1CCN(C(=O)c2cc(-c3cccc(Cl)c3)n[nH]2)CC1	i
COC(=O)c1ccc(NC(=O)C2CCCN(c3ccc(-c4cccs4)nn3)C2)cc1 (centres undefined)	i
CN1CCN(c2oc(CN3C(=O)c4ccccc4C3=O)nc2C#N)CC1	i
Cn1nc(CNC(=O)c2cc(=O)c3ccccc3o2)cc1-c1ccco1	i
CCN(CC)CCO[C@H]1CC[C@@]2(C)C(=CC[C@@H]3[C@@H]2CC[C@]2(C)OCC[C@@H]32)C1	i
Cc1cc(SCC(=O)Nc2cccc([N+](=O)[O-])c2)n2nc(C)c(-c3ccccc3)c2n1	i
Cc1ccc(CNc2oc(-c3ccc(S(=O)(=O)N(C)C)cc3)nc2C#N)cc1	i
Cc1nc(-c2ccccc2)cc2nn(CC(=O)NCc3ccc(Cl)cc3)c(=O)n12	i
O=C(CN1CCN(CC(O)c2ccco2)CC1)NC1CC1 (centres undefined)	i
O=C(NCc1ccc(Cl)cc1)Nc1ccc(Cl)c(N2CCCS2(=O)=O)c1	i

Sorted by length of the SMILES (descending): part of the list above
SMILES	GIRK2 act
CCN(CC)CCO[C@H]1CC[C@@]2(C)C(=CC[C@@H]3[C@@H]2CC[C@]2(C)OCC[C@@H]32)C1	i
COC(=O)c1ccc(NC(=O)C2CCCN(c3ccc(-c4cccs4)nn3)C2)cc1 (centres undefined)	i
CCSc1ccccc1C(=O)Nc1ccc(-n2nnc(C(N)=O)n2)cc1	i

More records.
SMILES	GIRK2 act
COc1cc2nc(SCC(=O)Nc3ccccc3F)n3nc(-c4ccccc4)nc3c2cc1OC	i
COCCCn1c(C(=O)NCCc2ccccc2)cc2c(=O)n3ccccc3nc21	i
COc1ccc(C)cc1-n1nnc(-c2nc(-c3ccc(F)cc3)no2)c1N	i
CCOc1ccc2ncc(C(=O)c3ccccc3)c(N3CCOCC3)c2c1	i
COc1cccc(C2c3c(oc4cc(C)c(C)cc4c3=O)C(=O)N2CCN2CCOCC2)c1 (centres undefined)	i
CCn1c(=O)c2oc3ccccc3c2n2c(C(=O)c3ccco3)c3ccccc3c12	i

Only part of the results is shown, so the mix of outcomes need not match the whole.
